# GALR2 agonist = GALR2 (human) receptor agonism; 140,000 tested, 0.48% active; GALR2-expressing cells, agonist activation read-out; activation, %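 (tested at 5 µM)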; O43603;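 active = above mean plus 3 SD of all compounds, about 5% in these data, not always enough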;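 note: 0% = vehicle buffer wells and 100% = reference agonist at full effect; tested in CHO reporter cells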
# HSV augment = HSV replication enhancement | HSV replication augmentation in cells, fold increase | maximum fold increase | 220,000 tested, 0.005% active;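 active = peak rise of 1.5-fold or more in the series; tested in PC3 cells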;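 note: first round at 10 µM; read as green reporter fluorescence; hits show the peak of a series up to 25 µM; 1 = signal of infected wells without compound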
# RGS16-Gao = RGS16-Galphao interaction regulator (human); O15492+P09471; bead-based flow cytometry RGS16-Galphao binding, fluorescence; actives lie on both sides; binding response (% of control), % at 10 µM; 220,000 tested, 0.38% active; AID 1441;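 active = below 25% or above 175%, edge rows of some plates excepted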;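 note: Galphao activated by GDP with aluminum fluoride before binding; 100% = wells without compound and 0% = beads without RGS; some results beyond the cut were filed as inactive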
# PKD1 inh = PKD1 (human) kinase inhibition. Q15139. PKD1 kinase fluorescence polarization assay. inhibition, %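 (about 10 µM by stock and volumes)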. 200,000 tested, 0.056% active. AID 797;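 active = inhibition of 50% or more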;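 note: controls were vehicle for no effect and a reference inhibitor for full effect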
# Target sequence (Q15139 whole entry, looked up): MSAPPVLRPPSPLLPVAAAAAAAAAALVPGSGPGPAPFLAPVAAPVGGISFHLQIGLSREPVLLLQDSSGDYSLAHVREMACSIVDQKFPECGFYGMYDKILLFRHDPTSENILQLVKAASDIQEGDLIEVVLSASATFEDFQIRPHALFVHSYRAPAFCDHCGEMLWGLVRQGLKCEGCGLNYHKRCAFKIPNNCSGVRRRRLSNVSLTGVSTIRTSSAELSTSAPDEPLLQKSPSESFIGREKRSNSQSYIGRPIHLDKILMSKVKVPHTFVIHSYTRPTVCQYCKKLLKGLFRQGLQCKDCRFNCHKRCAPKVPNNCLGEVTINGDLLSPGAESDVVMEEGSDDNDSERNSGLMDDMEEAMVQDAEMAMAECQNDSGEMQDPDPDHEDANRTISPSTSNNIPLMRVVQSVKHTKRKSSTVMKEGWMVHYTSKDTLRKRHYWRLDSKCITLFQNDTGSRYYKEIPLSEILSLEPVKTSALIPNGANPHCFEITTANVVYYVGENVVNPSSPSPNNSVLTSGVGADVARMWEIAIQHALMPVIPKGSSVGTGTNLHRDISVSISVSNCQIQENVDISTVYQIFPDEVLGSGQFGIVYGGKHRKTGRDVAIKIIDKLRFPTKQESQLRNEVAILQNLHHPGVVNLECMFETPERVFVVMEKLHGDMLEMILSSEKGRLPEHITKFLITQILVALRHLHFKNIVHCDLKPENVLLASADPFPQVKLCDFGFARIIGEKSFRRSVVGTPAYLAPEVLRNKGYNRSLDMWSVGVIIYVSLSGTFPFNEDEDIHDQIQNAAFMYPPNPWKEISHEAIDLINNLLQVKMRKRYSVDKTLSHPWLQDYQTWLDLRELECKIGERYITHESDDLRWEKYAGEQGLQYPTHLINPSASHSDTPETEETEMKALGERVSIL
# Insulin prom inh = TRM-6 insulin promoter activity inhibition | TRM-6 cells (human fetal islet line), insulin promoter-eGFP reporter, imaging; reporter expression induced with tamoxifen | inhibition, % at 2 µM | 130,000 tested, 0.9% active | AID 1273;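 active = inhibition above the mean plus 3 SD, with well images judged a real hit on visual review, cut at about 60% in these data, passing the limit was not always enough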
# Insulin prom inh cell count = further read-out of Insulin prom inh, marked with its call; normalized cell count, %; measured here: cell count, toxicity; reference of the scale not given here;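 cells exposed to compound for 48 h; stained nuclei by imaging scaled within each plate; lower means fewer cells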
# HSV augment primary fold = further read-out of HSV augment, marked with its call; fold increase; compound at 10 µM; measured here: primary screen fold increase 10 uM; tested in PC3 cells;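 GFP signal in the first replicate; 1 = infected wells without compound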
# * = called active by the depositor; i = inactive; · = no result given. Hits appear at their usual frequency; any-hit rate near 1.2%.
SMILES,GALR2 agonist,HSV augment,HSV augment primary fold,RGS16-Gao,PKD1 inh,Insulin prom inh,Insulin prom inh cell count
Cc1cc(O)c(C(C)C)cc1C1(c2cc(C(C)C)c(O)cc2C)OC(=O)c2ccccc21,·,i,0.59,98,·,·,·
CCO[C@H]1OC(C(=O)N2CCOCC2)=C[C@@H](c2ccc(Br)cc2)[C@@H]1CCCO,·,i,0.83,92,1,·,·
OC(CNc1ccccc1)Cn1ccc2ccccc21 (stereo not drawn),·,i,0.87,100,-7,·,·
CCC(=O)C1CCCN(C(=O)c2ccc(OC3CCN(C(=O)c4cccnc4)CC3)cc2)C1 (stereo not drawn),·,i,1.1,91,0,·,·
O=C(/C=C/c1c(Cl)cccc1Cl)NCCc1ccccc1,-2.0,i,0.78,97,0,-9,178
CN(C)S(=O)(=O)c1ccc(NC(=O)CN2CCN(C(c3ccccc3)c3ccccc3)CC2)cc1,-0.9,i,0.78,99,-10,-40,107
COc1ccc(CNC(=O)CN(Cc2ccc(Cl)cc2)S(C)(=O)=O)cc1,-0.2,i,0.97,92,8,-21,95
CCOC(=O)c1c(N)sc2c(OCC)c(Br)ccc12,-1.8,i,1,68,5,17,153
Cc1nnc(N/N=C/c2cccc(OCc3ccc(Cl)c(Cl)c3)c2)n1N,0.1,i,0.74,94,-1,·,·
CCOc1ccc(Nc2oc(-c3ccccc3Cl)nc2C#N)cc1,-0.9,i,0.89,98,1,29,97
COC(=O)C1=C(COc2ccc(C=O)cc2OC)NC(=O)NC1c1cc(C)ccc1C (stereo not drawn),-1.5,i,1,108,-7,47,173
CCc1c(O)nc(SCC(=O)NCc2ccco2)[nH]c1=O,-0.3,i,0.95,101,-8,·,·
C=CCn1c(SCC#N)nnc1-c1ccc2ncccc2c1,·,i,0.96,104,·,·,·
CN(C)c1ccc(/C=N/NC(=S)NCc2ccccc2)cc1,0.3,i,0.93,97,-8,17,137
CCN(CC(=O)NCCc1ccc(Cl)cc1)Cc1nc2ccccc2c(=O)[nH]1,·,i,0.9,108,7,-200,31
CCC(=O)NCC(=O)OCC(=O)c1ccccc1,-1.1,i,0.62,94,4,-485,60
COc1ccc(-c2nc(C#N)c(N3CCc4ccccc4C3)o2)cc1OC,-1.5,i,0.9,100,-12,44,160
COc1ccccc1-n1c(SCC(=O)NC(C)(C)C)nc(O)c(Cc2ccccc2)c1=O,-0.2,i,1.2,103,2,-66,107
CCN1CCN(c2ccc(NC(=O)c3ccccc3F)cc2Cl)CC1,·,i,0.98,105,5,-17,89
CCS(=O)(=O)NCC(c1cccnc1)N1CCN(c2ccccc2F)CC1 (stereo not drawn),-0.9,i,0.97,113,-4,-21,77

# Nothing new here: two of the compounds above.
SMILES,GALR2 agonist,HSV augment,HSV augment primary fold,RGS16-Gao,PKD1 inh,Insulin prom inh,Insulin prom inh cell count
Cc1cc(O)c(C(C)C)cc1C1(c2cc(C(C)C)c(O)cc2C)OC(=O)c2ccccc21,·,i,0.59,98,·,·,·
CCO[C@H]1OC(C(=O)N2CCOCC2)=C[C@@H](c2ccc(Br)cc2)[C@@H]1CCCO,·,i,0.83,92,1,·,·

# Carrying on:
SMILES,GALR2 agonist,HSV augment,HSV augment primary fold,RGS16-Gao,PKD1 inh,Insulin prom inh,Insulin prom inh cell count
COc1ccc(CCNC(=O)C2CCCN(c3nn4c(=O)cc(C)nc4s3)C2)cc1OC (stereo not drawn),-1.7,i,0.9,101,6,-3,94
O=C(O)Cn1c(CC(=O)N2CCCC2)nc2ccccc21,-0.6,i,0.81,101,-5,·,·
COc1ccc(/C=C/C(=O)Nc2ccccc2)cc1OC,·,i,1,95,-1,45,76
O=C(NCCN1CCOCC1)c1cc(-c2ccccc2)on1,-4.6,i,1.2,105,0,0,68
CCSc1nc(N2CCOCC2)c2c(c1C#N)CCCC2,-2.3,i,0.88,102,-4,-3,83
CCN1CCN(C(=S)NC(C)c2ccccc2)CC1 (stereo not drawn),-0.6,i,0.96,103,-4,-3,138
CCOC(=O)N1CCN(C(=O)c2ccccc2NC(=O)c2ccc(F)cc2)CC1,1.4,i,1.2,73,0,-36,78
COC(=O)c1ccccc1NC(=O)COC(=O)[C@H](C)NC(N)=O,·,i,0.91,106,·,·,·
Cc1cc(-c2n[nH]c(=S)n2/N=C/c2cccc([N+](=O)[O-])c2)n[nH]1,-1.0,i,0.91,105,-2,11,115
CN(C)c1ccc(CC(=O)c2nc3ccccc3s2)cc1,0.4,i,1,97,1,·,·
Clc1ccc2scc(CN3CCCCC3)c2c1,-1.9,i,0.87,111,-6,-117,109
Cc1ccc(C)c(NC(=O)C2CC3c4ccccc4C2c2ccccc23)c1 (stereo not drawn),-2.3,i,0.95,105,-3,-50,91
O=C(Nc1ccc(Oc2ccccc2)cc1)c1ccc(Cn2c(=O)[nH]c3ccsc3c2=O)cc1,1.0,·,·,100,7,-15,158
CCc1ccc(C(=O)NNc2ccc(F)cc2)cc1,·,i,1.1,99,·,·,·
CCc1ccc(-c2cc(C(=O)NCc3ccco3)c3ccccc3n2)s1,-1.1,·,·,109,-4,-17,131
Cc1ccc(/C=C2\Sc3ccccc3C2=O)s1,-2.2,i,0.92,100,-9,19,87
Cc1cc(C)c(C(=O)O)c(CC(C)(C)C(=O)O)c1,·,i,1,99,·,·,·
CCOc1c(OC)ccc2c3c(c(=O)oc12)CCCC3,2.0,i,0.87,101,4,·,·
CC(=O)N/N=C(\C)CC(=O)Nc1cccc(C(F)(F)F)c1,·,i,0.98,83,-4,-64,92
C/C=C(\C)CN1CCN(c2ccc(C)cc2)CC1,-3.2,i,0.97,103,-8,9,109
COc1ccc(C(=O)NCC2CCCO2)cc1S(=O)(=O)N1CCCc2ccccc21 (stereo not drawn),·,i,1,101,6,17,148
COc1cc(C2CC(=O)C3=C(C2)Nc2ncnn2C3c2cccs2)cc(OC)c1OC (stereo not drawn),·,i,1,97,·,·,·
O=C(COC(=O)/C=C/c1ccccc1[N+](=O)[O-])NC1CC1,·,i,0.9,101,-7,·,·
CN(C)S(=O)(=O)c1cccc(NC(=O)COC(=O)CCC(=O)c2cccs2)c1,·,i,0.94,102,2,·,·
Cc1nonc1OCCNc1ccc([N+](=O)[O-])cc1[N+](=O)[O-],-0.3,i,0.89,119,3,-3,129
Cc1cc(C)c2nc(N3CCC(C(=O)NCc4cccnc4)CC3)sc2c1,·,i,0.96,102,-2,11,86
Cc1cc(N2CCCCC2)nc(SCC(=O)c2ccccc2)n1,0.3,i,1.2,100,1,-64,130
Cc1ccc(S(=O)(=O)N(CC(=O)N/N=C/c2ccccc2C(=O)O)c2cc(Cl)cc(Cl)c2)cc1,·,i,0.82,101,-7,·,·
COc1cccc(CN(C)CC(=O)Nc2cccc3ccccc23)c1,·,i,0.95,102,-6,·,·
CCCN1CC(O)=C(C#N)C1=O,·,i,0.96,109,0,13,177
Cc1c(Cl)ccc2c(C(=O)O)cc(-c3ccccc3)nc12,·,i,0.99,99,·,·,·
CCOC(=O)C1C(=O)CC(C)(O)C(C(=O)OCC)C1c1ccccc1OC (stereo not drawn),-1.8,i,0.98,102,-7,18,132
O=[N+]([O-])c1cc(C(F)(F)F)ccc1N1CCN(S(=O)(=O)c2ccc3ccccc3c2)CC1,-1.9,i,1,92,-6,6,96
Cc1ccc(C)c2sc(NC(=O)c3nc4ccccc4s3)nc12,-1.8,·,·,111,-4,-46,111
COc1ccc2c(Cl)c(C(=O)NCC3CCCO3)sc2c1Cl (stereo not drawn),-0.4,i,0.84,109,-14,0,153
Cc1c(-c2cccc(Cl)c2)nc2ccccc2c1C(=O)OCC(=O)Nc1ccc2c(c1)OCO2,0.2,i,0.89,108,-2,47,138
O=C1C(=O)N(CCN2CCOCC2)C(c2ccccn2)/C1=C(/O)c1ccc(Cl)cc1 (stereo not drawn),-0.8,i,1,106,-4,11,96
CC(=O)N/C(=C/c1ccc(Cl)cc1)C(=O)NCCc1c[nH]c2ccccc12,-4.2,·,·,102,-1,·,·
CCc1nc2cc3sc(CC)nc3cc2s1,·,i,0.93,104,0,·,·
Cc1nc2sccn2c1-c1csc(NCc2ccccc2)n1,-1.8,i,0.94,100,0,·,·
CC1(C)Cc2cccc(C(=O)NC3CCN(Cc4ccccc4)CC3)c2O1,·,i,0.87,90,·,·,·
CN(C)CCCNC(=S)Nc1ccc(Br)cc1,·,i,0.76,107,·,·,·
O=C(O)CCCC(=O)Nc1cccc(-c2nc3ccccc3[nH]2)c1,-0.8,i,0.86,105,5,55,99
C#CCOCCOCCOCCNc1nc(N2CCOCC2)nc(N2CCN(C(=O)[C@H]([C@@H](C)CC)n3cc(CCCCN)nn3)CC2)n1,-0.9,i,0.92,97,-1,23,88
O=[N+]([O-])c1ccc(-n2cccc2/C=N/Nc2nc(N3CCCCC3)nc(N3CCCCC3)n2)cc1,·,i,0.87,118,-6,0,117
CNCC/C=C1/c2ccccc2CSc2ccccc21,-1.9,i,0.94,103,3,-24,144
O=C(Cn1cc(C(F)(F)F)ccc1=O)N/N=C/c1ccccc1,·,i,1,104,0,·,·
NNC(=O)CSc1ncc(-c2ccccc2)[nH]1,·,i,0.97,101,-2,·,·
CC(C)(C)NC(=O)c1ccc(COCC(F)(F)F)o1,-1.5,i,0.72,101,-2,69,136
CC(C)c1ccc(C2=NN(c3ccccc3)C(=O)CC2)cc1,-1.6,i,1,108,-2,·,·
COC(=O)c1cnn(-c2ccc(C)c(C)c2)c1-n1cccc1,-0.4,i,1,164,5,·,·
CC(C)CCC(C(=O)O)C(C)CC(=O)NC1CCCCC1 (stereo not drawn),-1.5,i,1,98,-2,0,137
O=C(Cc1ccccc1)NCc1n[nH]c(=S)n1-c1ccccc1,·,i,0.97,95,-5,15,101
CCOCCCn1c(=NC(=O)c2ccc(OC)c(OC)c2)c(C#N)cc2c(=O)n3cccc(C)c3nc21,-3.5,·,·,89,-1,16,118
Cc1cc(C)n(CCn2nc(C)cc2C)n1,-2.7,i,0.98,100,13,·,·
COc1cccc(N2C(=O)C3C(C2=O)C3(c2ccccc2)c2ccccc2)c1 (stereo not drawn),·,i,0.93,120,·,·,·
O=C(NNC1CC(c2ccccc2)=NN1C(=O)c1ccccc1)c1ccccc1 (stereo not drawn),·,i,0.96,108,2,-23,146
N#Cc1sc2nc(C3CC3)cc(-c3ccc(Cl)cc3)c2c1N,2.2,i,0.94,108,5,7,130
NC(=O)c1cc2cc(Cc3ccccc3Cl)ccc2oc1=O,·,i,0.86,99,-2,·,·
CCN(Cc1ccccc1)C(=O)COC(=O)c1cnc(C)cn1,·,i,1,101,0,·,·
COC(=O)c1ccc(CSc2nnc(Nc3ccc(OC)cc3)s2)o1,-1.3,i,1,96,-8,47,81
O=c1cc2ncc(-c3[nH]ncc3[N+](=O)[O-])cn2[nH]1,·,i,0.93,98,·,·,·
O=C(NC1CCCCCC1)C1c2ccccc2C(=O)N1Cc1ccco1 (stereo not drawn),-0.5,i,1.1,104,8,-55,136

# In the list so far, these have a Cl atom.
SMILES,GALR2 agonist,HSV augment,HSV augment primary fold,RGS16-Gao,PKD1 inh,Insulin prom inh,Insulin prom inh cell count
O=C(/C=C/c1c(Cl)cccc1Cl)NCCc1ccccc1,-2.0,i,0.78,97,0,-9,178
COc1ccc(CNC(=O)CN(Cc2ccc(Cl)cc2)S(C)(=O)=O)cc1,-0.2,i,0.97,92,8,-21,95
Cc1nnc(N/N=C/c2cccc(OCc3ccc(Cl)c(Cl)c3)c2)n1N,0.1,i,0.74,94,-1,·,·
CCOc1ccc(Nc2oc(-c3ccccc3Cl)nc2C#N)cc1,-0.9,i,0.89,98,1,29,97
CCN(CC(=O)NCCc1ccc(Cl)cc1)Cc1nc2ccccc2c(=O)[nH]1,·,i,0.9,108,7,-200,31
CCN1CCN(c2ccc(NC(=O)c3ccccc3F)cc2Cl)CC1,·,i,0.98,105,5,-17,89
Clc1ccc2scc(CN3CCCCC3)c2c1,-1.9,i,0.87,111,-6,-117,109
Cc1ccc(S(=O)(=O)N(CC(=O)N/N=C/c2ccccc2C(=O)O)c2cc(Cl)cc(Cl)c2)cc1,·,i,0.82,101,-7,·,·
Cc1c(Cl)ccc2c(C(=O)O)cc(-c3ccccc3)nc12,·,i,0.99,99,·,·,·
COc1ccc2c(Cl)c(C(=O)NCC3CCCO3)sc2c1Cl (stereo not drawn),-0.4,i,0.84,109,-14,0,153
Cc1c(-c2cccc(Cl)c2)nc2ccccc2c1C(=O)OCC(=O)Nc1ccc2c(c1)OCO2,0.2,i,0.89,108,-2,47,138
O=C1C(=O)N(CCN2CCOCC2)C(c2ccccn2)/C1=C(/O)c1ccc(Cl)cc1 (stereo not drawn),-0.8,i,1,106,-4,11,96
CC(=O)N/C(=C/c1ccc(Cl)cc1)C(=O)NCCc1c[nH]c2ccccc12,-4.2,·,·,102,-1,·,·
N#Cc1sc2nc(C3CC3)cc(-c3ccc(Cl)cc3)c2c1N,2.2,i,0.94,108,5,7,130
NC(=O)c1cc2cc(Cc3ccccc3Cl)ccc2oc1=O,·,i,0.86,99,-2,·,·

# Source: PubChem BioAssay (several laboratories)
